# Bioassay records (PubChem BioAssay)
# NPR1 antag: antagonists of human natriuretic peptide receptor Npr1 | P16066 | HEK293 hNpr1 GloSensor cGMP, ANP-stimulated luminescence | Potency, µM (series often up to 46.3 µM), for inactives: at the top dose activity change, negative = inhibition, hits mostly inhibitors | 76,000 compounds, 1.6% hits | AID 1347048; active = well fitted inhibition curve with a large enough effect; inconclusive = small, poorly fitted or top-dose-only effect; inactive = no such curve, though single readings can be large or run the other way;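 note: nearly all actives have a fitted effect of over 60% in size; nearly all hits also lower the signal before the agonist is added; a reference antagonist and vehicle were the controls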
# Target sequence (P16066 whole entry, looked up): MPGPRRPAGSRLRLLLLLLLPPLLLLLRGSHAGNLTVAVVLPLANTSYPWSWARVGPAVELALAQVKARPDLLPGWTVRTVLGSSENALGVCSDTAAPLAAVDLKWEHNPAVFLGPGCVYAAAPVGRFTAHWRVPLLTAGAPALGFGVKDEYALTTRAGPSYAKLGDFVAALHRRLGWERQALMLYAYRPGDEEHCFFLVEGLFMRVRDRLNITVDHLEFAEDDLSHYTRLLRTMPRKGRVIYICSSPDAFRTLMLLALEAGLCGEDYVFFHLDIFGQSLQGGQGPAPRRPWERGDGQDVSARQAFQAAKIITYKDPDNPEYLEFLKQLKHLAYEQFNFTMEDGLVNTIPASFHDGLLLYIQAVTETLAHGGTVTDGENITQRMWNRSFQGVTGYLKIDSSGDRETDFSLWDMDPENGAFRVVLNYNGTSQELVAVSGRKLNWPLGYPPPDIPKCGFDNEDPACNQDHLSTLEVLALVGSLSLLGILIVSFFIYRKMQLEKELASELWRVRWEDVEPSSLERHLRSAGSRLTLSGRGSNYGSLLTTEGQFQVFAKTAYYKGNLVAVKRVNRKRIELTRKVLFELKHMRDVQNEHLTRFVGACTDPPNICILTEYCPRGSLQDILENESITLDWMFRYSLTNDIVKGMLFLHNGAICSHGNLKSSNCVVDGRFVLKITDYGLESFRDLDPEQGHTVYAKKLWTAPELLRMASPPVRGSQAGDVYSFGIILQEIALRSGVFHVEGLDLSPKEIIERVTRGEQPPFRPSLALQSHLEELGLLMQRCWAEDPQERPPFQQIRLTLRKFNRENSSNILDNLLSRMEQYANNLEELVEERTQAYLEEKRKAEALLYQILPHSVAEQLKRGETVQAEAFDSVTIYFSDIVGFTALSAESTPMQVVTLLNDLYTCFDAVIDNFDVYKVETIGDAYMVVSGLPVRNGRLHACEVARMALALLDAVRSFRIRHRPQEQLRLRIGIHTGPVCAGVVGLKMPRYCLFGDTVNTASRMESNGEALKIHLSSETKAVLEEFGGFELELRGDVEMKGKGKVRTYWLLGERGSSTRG
#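 HEK293 cells stably expressing human Npr1 and cGMP GloSensor pGS-40F, loaded 2 h with 2% GloSensor reagent, given compound 30 min at room temperature. Luminescence read before and 20 min after 0.1 nM hNppA.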
# * marks the source's active call; other numbers are inactive results; ? = inconclusive; [ ] = remark or other dose. % is set by controls: 0 for no effect and ±100 for the full control effect; potency is the fitted concentration of half-maximal effect. Only part of the results is shown; rates above refer to the full screens.
NPR1 antag | Structure
-1%[70.6 µM] | O=C(NCC(F)(F)F)C1CCCN1c1nc2ncccc2o1 (configuration not stated)
0% | COc1ccc(S(=O)(=O)N2C[C@@H]3C[C@H](C2)c2c(NS(=O)(=O)c4ccccc4)ccc(=O)n2C3)cc1
5% | COc1ccc(-c2cc(N3CCN(C(=O)Cc4cccc(C)c4)CC3)n[nH]2)cc1
7%[70.6 µM] | C[C@@H]1CN(C(=O)c2ccnc(-c3nnc4ccc(Nc5ccccc5)nn34)c2)C[C@H](C)O1
-13% | COc1cc(NC(=O)Cn2c(-c3cnccn3)nc(C)c(C)c2=O)cc(OC)c1
11µM* | CCC(O)C(=O)N1CCc2onc(-c3ccc(-c4ccccc4)cc3)c2C1 (configuration not stated)
-5% | CCN(Cc1cnn(C)c1)C(=O)C1CCC(=O)N(Cc2cccc(OC)c2)C1 (configuration not stated)
7%[70.6 µM] | Oc1ccccc1CN[C@H]1[C@H](O)[C@@H](N2CCN(c3ccccc3)CC2)[C@@H]2OC[C@H]1O2
-6%[70.6 µM] | Cc1noc([C@@H](C)NC(=O)Nc2ccc(Cl)cc2)c1C(=O)O
1% | Cc1c(F)cccc1NC(=O)N1CCC(n2cnnc2C2CC2)C1 (configuration not stated)
4% | N#Cc1ccc(N2CCN(C(=O)CCn3cncn3)CC2=O)cc1
1% | O=C(CCNc1cnc2cnccn12)NC1CCN(Cc2ccccc2)CC1
-10% | COc1ccc(-c2noc(-c3nnn4c3COC(c3cccc(OC)c3)C4)n2)cc1 (configuration not stated)
-1% | c1cnc(N2CCOCC2)c(OC2CCNC2)n1 (configuration not stated)
-5%[70.6 µM] | COc1ccc(CN2C(=O)[C@@H]3C[C@@H](O)CN3C3(CN(C4CCCCC4)C3)C2=O)cc1
-3%[70.6 µM] | O=C(c1cccnc1)N1C[C@@H](F)[C@@H](OCc2nc3ccc(C(F)(F)F)cc3[nH]2)C1
2% | CN1CCCCCCN(C(=O)c2ccco2)[C@H]2CCC[C@H]2C1=O
2%[70.6 µM] | COCCN1C(=O)[C@@H]2C[C@@H](CN2C(=O)NCc2ccccc2)Oc2ccccc21
0%[70.6 µM] | FC(F)(F)c1ccc2nc([C@H]3CCN(Cc4ccccn4)C3)[nH]c2c1
1%[70.6 µM] | CN1CCC(N[C@@H]2CO[C@H](CNC(=O)c3cccs3)[C@H]2O)CC1
3%[70.6 µM] | CN(C)c1ccc(CN[C@H]2C[C@H]3C(=O)NC[C@@H](CCC(=O)N4CCCC4)N3C2)cc1
5% | Cn1c(CCNC(=O)CCc2ccc3c(c2)CN(C(=O)C2CC2)CCO3)nc2ccccc21
4% | O=c1[nH]c(-c2ccc(F)cc2)nc2c1CCN(S(=O)(=O)c1ccc3c(c1)CCC3)C2
6% | CC(C)c1ccc(N2CC(C(=O)NCc3cncn3C3CC3)CC2=O)cc1 (configuration not stated)
? | Cc1noc(-c2ccc(OC3CN(C(=O)Nc4cccc(F)c4)C3)cc2)n1

# Next records:
NPR1 antag | Structure
2% | CCc1noc(-c2ccn3c(CNC(=O)c4ccoc4)nnc3c2)n1
-19% | COC[C@@H]1CN(S(=O)(=O)c2ccccc2F)C[C@H]1c1ccncc1
-17%[70.6 µM] | CCC(CC)C(=O)NC[C@@H]1C=C(C)[C@H](Cc2nc3ccc(C)cc3[nH]2)C[C@H]1C(C)C
20% | c1ccc([C@@H]2C[C@H]2c2nc(C3CCOCC3)n[nH]2)cc1
-15%[70.6 µM] | CCn1c2c(c(=O)n1-c1ccccc1)CCN(C(=O)c1cccc(N(C)C)c1)C2
1% | Cc1ccc(-c2noc([C@@](C)(N)Cc3ccccc3)n2)nn1
-3% | COCCN1CCC(C(=O)Nc2ccc(Oc3ccccc3F)cc2)CC1
3% | NC(=O)CCC[C@@H]1[C@H]2CCCN3CCC[C@@H](CN1Cc1ccccc1)[C@@H]23
0%[70.6 µM] | CN1CCN(C(=O)c2ccnc(-c3nnc4ccc(N(C)C)nn34)c2)CC1
1% | CN(C)S(=O)(=O)N1C[C@@H]2CC[C@H](C1)N(C(=O)CCn1cnnn1)C2
0% | CC(C)NC(=O)C1COC2(CCN(C(=O)c3ccc(F)cc3F)CC2)N1C(=O)c1ccc(F)cc1 (configuration not stated)
1% | NC(=O)COc1cccc(CN2CCN(c3ccc(F)cc3F)CC2)c1
4% | Cc1nc([C@@H]2CN(C(=O)CCCc3nc4ccccc4s3)C[C@H]2C(N)=O)n[nH]1
-12% | COC[C@@H]1CN(C(=O)c2ccc3ncccc3c2)C[C@H]1c1ccccn1
-10% | COc1ccc(CN2C(=O)COC[C@H]2C(=O)Nc2cc(F)cc(F)c2)cc1OC
3% | CCNC(=O)c1cccnc1OC1CCN(C(=O)c2cc(C)ccc2C)C1 (configuration not stated)
0%[70.6 µM] | O=C(C1CN(c2ccccc2)C(=O)N1)N1CCOCC1 (configuration not stated)
-6% | O=C(Cn1ccn2nc(-c3ccc(F)cc3)c(CO)c2c1=O)N1CCCc2ccccc21
4% | CCCCc1nn(CC(=O)N2CCC(c3ccccc3)CC2)c(=O)n1CC
-1% | CCCCN1CCN(C(=O)C2CCCN(c3cnn(Cc4ccccc4)c(=O)c3)C2)CC1 (configuration not stated)
-4% | Cc1ccccc1NC(=O)CN1C(=O)NC2(CCC(C(C)(C)C)CC2)C1=O (configuration not stated)
-4% | Cc1noc([C@H]2CCN(Cc3ccsc3)C[C@H]2NC(=O)C2CC2)n1
-24%[70.6 µM] | COCc1ccc2c(c1)c(OC(C)(C)C(=O)N1CCN(C)CC1)nn2Cc1ccccc1
7% | COc1ccc(C(=O)N2CCC3(CC2)C(OC)C(=O)N3c2cccc(F)c2)cn1 (configuration not stated)
-11% | O=[S+]([O-])(NCC1CN(Cc2ccncc2Cl)CC12CN(c1ccccc1)C2)c1ccccc1 (configuration not stated)

# 5 entries out of the list above, arranged by the value under NPR1 antag, falling:
NPR1 antag | Structure
4% | Cc1nc([C@@H]2CN(C(=O)CCCc3nc4ccccc4s3)C[C@H]2C(N)=O)n[nH]1
2% | CCc1noc(-c2ccn3c(CNC(=O)c4ccoc4)nnc3c2)n1
1% | NC(=O)COc1cccc(CN2CCN(c3ccc(F)cc3F)CC2)c1
-5% | CCN(Cc1cnn(C)c1)C(=O)C1CCC(=O)N(Cc2cccc(OC)c2)C1 (configuration not stated)
-13% | COc1cc(NC(=O)Cn2c(-c3cnccn3)nc(C)c(C)c2=O)cc(OC)c1

# Filtered by structure, the entries above with a thiophene ring, fused or not (2)
NPR1 antag | Structure
1%[70.6 µM] | CN1CCC(N[C@@H]2CO[C@H](CNC(=O)c3cccs3)[C@H]2O)CC1
-4% | Cc1noc([C@H]2CCN(Cc3ccsc3)C[C@H]2NC(=O)C2CC2)n1

# The listing picks up, starting 5 compounds before the break.
NPR1 antag | Structure
-4% | Cc1ccccc1NC(=O)CN1C(=O)NC2(CCC(C(C)(C)C)CC2)C1=O (configuration not stated)
-4% | Cc1noc([C@H]2CCN(Cc3ccsc3)C[C@H]2NC(=O)C2CC2)n1
-24%[70.6 µM] | COCc1ccc2c(c1)c(OC(C)(C)C(=O)N1CCN(C)CC1)nn2Cc1ccccc1
7% | COc1ccc(C(=O)N2CCC3(CC2)C(OC)C(=O)N3c2cccc(F)c2)cn1 (configuration not stated)
-11% | O=[S+]([O-])(NCC1CN(Cc2ccncc2Cl)CC12CN(c1ccccc1)C2)c1ccccc1 (configuration not stated)
-9% | CCN1C(=O)C2CC3(CCN(C(=O)c4cnccc4C)CC3)CN2C1=O (configuration not stated)
-2% | CCCn1c(C)cnc1C1CCN(S(=O)(=O)c2cc(OC)ccc2OC)C1 (configuration not stated)
-1% | CCOCCn1nc(C)cc1-c1nc(-c2ccc(C)nn2)no1
-15% | COc1ccc(CN2CC3(CCN(C(=O)c4cc(-c5ccc(F)cc5)n[nH]4)CC3)C2=O)cc1
0% | CC(C)c1cc(C(=O)NCCc2noc(C3CCCO3)n2)nc2ncnn12 (configuration not stated)
-1% | COCCN1CC(CO)C2(CCN(Cc3cccc(C#N)c3)CC2)C1 (configuration not stated)
6% | O=C1CCN(C(=O)C2CCN(C(=O)NC3CCCCC3)CC2)CCCCCCN1
1%[70.6 µM] | O=C1NC2(CCN(C(=O)c3ccccn3)C2)Oc2ccccc21 (configuration not stated)
8% | CC(C(=O)N1CCc2onc(-c3ccc(C(F)(F)F)cc3)c2C1)N1CCCC1=O (configuration not stated)
1% | COc1ccc(NC(=O)N[C@H]2[C@H](O)[C@@H](N3CCN(c4ccccc4OC)CC3)[C@@H]3OC[C@H]2O3)cc1
4% | Cc1cc(C(=O)NCc2c(C)ncc3c2CCNC3)ccc1F
1% | Cc1ccc(O[C@H]2COCC[C@H]2NC(=O)c2ccc3c(c2)OCO3)cn1
-3% | CCC(C(=O)NC1CCN(c2cc(-c3ccc(OC)cc3)[nH]n2)CC1)c1ccccc1 (configuration not stated)
7% | O=C(c1ccc(OC(F)(F)F)cc1)N1CCC([C@@H]2CNC[C@H]2CO)CC1
-13% | COc1ccc(CCNC(=O)CC2CCOCC2)cc1OC
-2% | CCCC1c2nccn2CCCN1C(=O)c1conc1C (configuration not stated)
6% | COc1ccc(OC)c(CN2CCC3(CCCNC3)C2)c1 (configuration not stated)
-23% | CC1(C(=O)N2CCOc3c(O)cc(-c4cccc(Cl)c4)cc3C2)CCCO1 (configuration not stated)
4% | Cc1cnc(-c2ccncc2)n1C1CCN(C(=O)C2CC2)CC1
-3% | CC(C)(C)c1ccc(-c2noc(CNC(=O)CN3C(=O)CNC3=O)n2)cc1
1%[70.6 µM] | COc1ccc(CN2C(=O)CO[C@H]3CN(CC4CC4)C[C@H]32)cc1
2%[70.6 µM] | Oc1ccccc1CNC1(Cc2cc(-c3ccccn3)on2)COC1
-20% | O=C(c1cnccn1)N1CCCC(n2cc(-c3nc(-c4ccccc4)no3)nn2)C1 (configuration not stated)
3% | CN(Cc1cnn(C)c1)C(=O)c1csc2nc(-c3cccc(C(F)(F)F)c3)cn12
-15% | O=C(Nc1ccccc1)N1CCOC(CN(C(=O)c2ccco2)C2CCCC2)C1 (configuration not stated)

# Remaining list, next part.
NPR1 antag | Structure
2% | Cc1occc1C(=O)N[C@@H]1CN(c2ccncn2)C[C@H]1CN(C)C
1% | CC(C)C(=O)N1CCc2c(c(-c3nncn3C(C)C)nn2C)C1
-2% | Cc1nonc1C1CCCN1C(=O)c1cnc(COc2ccccc2)[nH]c1=O (configuration not stated)
-3% | COc1ccc(CC(=O)N2C[C@@H](CO)[C@H](c3ccncc3)C2)cc1OC
3%[70.6 µM] | CCn1c2c(c(=O)n1-c1ccccc1)CCN(Cc1ncccn1)C2
0% | CCN1c2cc(C(=O)NCc3cccc(OC)c3OC)ccc2C(=O)N2CCCCC21 (configuration not stated)
-1%[70.6 µM] | CCNC(=O)NC[C@@H]1C=C(C)[C@H](CC(=O)NCCN2CCOCC2)C[C@H]1C(C)C
-8% | CN(C)c1nc2c(c(=O)[nH]1)CCN(Cc1cccc(Cl)c1F)CC2
3% | CC(C)Oc1ccc2c(NC(=O)c3ccon3)nn(CC(F)(F)F)c2c1
-22% | Cc1cccc(OCCc2noc(C3CCN(C(=O)c4n[nH]c(=O)c5ccccc45)C3)n2)c1 (configuration not stated)
6%[70.6 µM] | O=C1CN(Cc2cccs2)CCN1c1ccc(Cl)nn1
-10% | COc1ccccc1CNC(=O)C[C@@H]1c2nc(-c3cccnc3)sc2C[C@@H]2[C@](C)(CO)[C@H](O)CC[C@]21C
-6% | CCC1(N2CCN(C)CC2)CCN(S(=O)(=O)c2ccccc2)C1 (configuration not stated)
0% | CCN1c2cc(C(=O)Nc3ccc(OC(F)(F)F)cc3)ccc2C(=O)N2CCCC21 (configuration not stated)
-6% | COc1ccc(CCC(=O)N2C[C@@H](CO)[C@H](c3nc(C)no3)C2)cc1
10% | COCCNC(=O)C1COC2(CCN(C(=O)c3ccc(OC)cc3)CC2)N1C(=O)c1ccccc1C (configuration not stated)
-1% | COc1ccc(C2(C(=O)N3C[C@@H](C(N)=O)[C@H](c4n[nH]c(C)n4)C3)CC2)cc1
4% | Cc1ccc(C)c(C(=O)N2CCC3(CC2)N=C(c2ccccc2)NO3)c1
1% | O=C(CCc1ccccc1)N1CCCN(c2cc(-c3ccccc3)[nH]n2)CC1
0% | CC(C)CC(=O)C(=O)N1CCN(Cc2cccnc2)[C@@H]2CS(=O)(=O)C[C@@H]21
3% | CC(=O)N1CCC([C@@H]2CN(C(=O)c3cc(C)cc(C)c3)C[C@H]2CO)CC1
-2% | COc1ncccc1CN1C[C@H]2[C@H](C1)[S+](=O)([O-])C(C)(C)C(=O)N2CC1CCOCC1
-3% | Cc1noc(C)c1[S+](=O)([O-])N1CCC2(CC1)CNC(=O)c1ccccc1O2
3% | CN1CCCC2(CCN(S(=O)(=O)c3ccc4[nH]c(=O)[nH]c4c3)C2)C1=O (configuration not stated)
-1% | Cc1c(Cl)c(C(=O)N[C@H]2[C@@H]3CCO[C@@H]3[C@@H]2C2CCCC2)nn1C

# The list goes on.
NPR1 antag | Structure
0% | Cc1ccc(C(=O)N2CCCCCCNC(=O)CC2)s1
5% | CCOCc1nc(C2CCCN2S(=O)(=O)c2c(C)nn(C)c2C)no1 (configuration not stated)
20% | COCCn1c(C)cc(C(=O)N2CCCC(Cc3noc(C4CC4)n3)C2)c1C (configuration not stated)
? | CN(C)C(=O)c1cc2c(s1)CCC(C(=O)N1CCN(c3cccc(Cl)c3)CC1)C2 (configuration not stated)
-21% | CCn1ccnc1CN(C)Cc1cn(Cc2ccccc2)nc1-c1cc2ccccc2o1
-2% | Cc1cnc(C(=O)NC2C[C@H]3CC[C@@H](C2)N3C(=O)c2ccc(C)c(F)c2)cn1 (some centres not stated)
5% | COCCOC1CN(C2CCN(C(=O)NC(C)(C)C)CC2)C12CCCCC2 (configuration not stated)
15% | O=C(CCC1CCN(Cc2ccc(OCCO)cc2)CC1)Nc1ccccc1Cl
